Measles inh = inhibitors of measles virus growth in infected cells. infected Vero cells, GFP fluorescence, 64 h; active compounds read low. z-score (no concentration beside the values). 0.1% of 33,000 active. AID 745;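 active = z-score under -3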;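 note: score is relative to mean and SD of the compound wells of a plate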
* = called active by the depositor. This is a subset; count on the stated rates, not on these rows.

Measles inh,molecule
0.5,CCCOC(=O)c1ccc2c(c1)C(=O)N(C1CCCCC1)C2=O
-0.36,O=C(O)CNc1ncnc2c1oc1ccccc12
0.71,CCCN(CCC)S(=O)(=O)c1ccc(C(=O)N2CCN(C)CC2)cc1
1.15,COc1ccc(C2SCc3cc(C)c(C)cc3CS2)cc1
-0.75,Cc1c(C(=O)N2CCC(C)CC2)sc2ncnc(N3CCCCC3C)c12 (configuration not stated)
-0.93,CC1=Nc2ccccc2C(c2ccccc2)(c2ccccc2)O1
-0.94,Cc1nc2nc(S(N)(=O)=O)nn2c(C)c1C
0.86,COc1cccc(NC(=O)Cn2c3ccccc3c(=O)c3cc(OC)ccc32)c1
0.19,Cc1ccc(S(=O)(=O)C2(C(=O)NCCc3ccc(Cl)cc3)CC2)cc1
1.85,O=S(=O)(N=C1C=CC(=NS(=O)(=O)c2ccc(Cl)cc2)c2ccccc21)c1ccc(Cl)cc1
-0.69,Cc1ccc2oc(-c3cccc(NC(=O)c4ccc([N+](=O)[O-])o4)c3C)nc2c1
-0.78,CCCCOc1ccc(-c2cc(C(N)=O)c3ccccc3n2)cc1
-0.08,CCCOc1ccc(-c2nc(Oc3ccc(C(=O)OC)cc3)c3ccccc3n2)cc1
-0.72,CC(=O)N1c2c(cc(Br)cc2S(=O)(=O)NCc2ccccc2Cl)CC1C (configuration not stated)
-0.81,Cc1cc2nn(-c3ccccc3)nc2cc1NC(=O)c1ccc(F)cc1
-0.54,Cc1ccc(S(=O)(=O)NCc2ccc(C(=O)NCc3cccnc3)cc2)cc1
-0.41,O=C(NC1CCCCC1)c1nn2c(C(F)(F)F)cc(-c3ccco3)nc2c1Br
0.11,CCOC(=O)c1ccc(CN(Cc2ccc(F)cc2)S(=O)(=O)c2ccc(F)cc2)cc1
0.53,Clc1ccc(Cn2c(Cc3ccccc3)nc3ccccc32)cc1
-1.55,O=C1C2C3C=CC(C3)C2C(=O)N1c1nc2ccccc2s1 (configuration not stated)
-0.93,CC1CC(C)CN(S(=O)(=O)c2ccc(C(=O)Nc3nc(-c4cccs4)cs3)cc2)C1 (configuration not stated)
-1,COc1ccc(CN2CCN(C(=O)c3ccc(S(=O)(=O)c4cccc(Cl)c4)c([N+](=O)[O-])c3)CC2)c(OC)c1OC
0.49,CC(C)CCNC(=O)c1cc(=O)[nH]c2ccc(S(=O)(=O)N3CCOCC3)cc12
-0.57,CCCOc1ccc(NC(=O)C2CC(=O)N(Cc3ccccc3)C(=Nc3ccc(F)cc3)S2)cc1 (configuration not stated)
-0.36,O=C1c2cc3ccccc3cc2C(=O)N1c1cccc2ccccc12
1.03,COC(=O)c1ccc2c(c1)C(=O)NC2=O
-0.26,Cc1ccc(O)c(NC(=O)CCS(=O)(=O)c2nc(-c3ccc4c(c3)OCO4)cc(C(F)(F)F)n2)c1
-0.68,COc1ccc(-c2cn(-c3ccc(Cl)cc3)c(=S)[nH]2)cc1
-0.39,CCOc1ccccc1C1N=C(c2ccc3c(c2)OCO3)CC(c2ccccc2O)N1 (configuration not stated)
0.05,O=C(CN1C(=O)C2C3C=CC(C3)C2C1=O)Nc1nccs1 (configuration not stated)

The final 6 records of the section above come first, to join the parts:
Measles inh,molecule
-0.36,O=C1c2cc3ccccc3cc2C(=O)N1c1cccc2ccccc12
1.03,COC(=O)c1ccc2c(c1)C(=O)NC2=O
-0.26,Cc1ccc(O)c(NC(=O)CCS(=O)(=O)c2nc(-c3ccc4c(c3)OCO4)cc(C(F)(F)F)n2)c1
-0.68,COc1ccc(-c2cn(-c3ccc(Cl)cc3)c(=S)[nH]2)cc1
-0.39,CCOc1ccccc1C1N=C(c2ccc3c(c2)OCO3)CC(c2ccccc2O)N1 (configuration not stated)
0.05,O=C(CN1C(=O)C2C3C=CC(C3)C2C1=O)Nc1nccs1 (configuration not stated)
2.25,CC(C(=O)NCCc1ccccc1)N(c1ccccc1)S(C)(=O)=O (configuration not stated)
-0.64,Cc1onc(-c2ccccc2)c1C(=O)Nc1sc2c(c1C#N)CCCCC2
-0.48,Cc1cccc(NC(=O)c2ccc(Cl)cc2)n1
0.65,CCOCCCn1c(=S)[nH]c2cc(C(=O)NC3CCCCC3)ccc2c1=O
-1.3,CC(C)c1ccc(Nc2cc(C(=O)NCc3cccnc3)c3ccccc3n2)cc1
-0.03,C=CCNS(=O)(=O)c1cccc2nonc12
-0.92,COc1ccc(CNS(=O)(=O)c2ccc(OC)cc2)cc1
-1.19,O=C(NCc1ccc(Cl)cc1)c1cc(-c2ccc3c(c2)OCO3)on1
1.41,CC1CCCCN1S(=O)(=O)c1ccc2[nH]c(=O)cc(C(=O)NCCCN3CCCC3)c2c1 (configuration not stated)
-0.91,COc1cc(OC)cc(C(=O)N2CCN=C2SCc2ccc(Br)cc2)c1
1.1,O=C(Nc1nc2ccc(Br)cc2s1)c1cccs1
-0.11,O=C(c1ccc(Cn2cc([N+](=O)[O-])cn2)cc1)N1CCSCC1
0.28,CC(C)NC(=O)c1cc(-c2ccc3c(c2)OCO3)on1
-0.85,CC(=O)NCCOc1c(C)cc(S(=O)(=O)N2CCOCC2)cc1C
-0.59,CC(C)(C)C1CCC(=O)C(C2(O)C(=O)Nc3ccc(Br)cc32)C1 (configuration not stated)
-0.63,CCOc1ccc(-n2c(=O)c3sccc3n(CC(=O)Nc3ccccc3C)c2=O)cc1
1.36,O=C(Cc1ccc(F)cc1)NCCSc1c[nH]c2ccccc12
-0.2,O=C(Cn1c(=O)n(C2CCCCC2)c(=O)c2ccccc21)Nc1ccc(F)cc1
-1.05,COc1ccc(Cn2c(=O)[nH]c3cc(C(=O)NCc4ccc(F)cc4)ccc3c2=O)cc1
-0.14,COc1cccc2cc(C(=O)N3CCN(C(=O)c4ccccc4)CC3)c(=O)oc12
0.58,Cc1ccc(NC(=O)CSc2nc3c([nH]c4ccccc43)c(=O)n2-c2ccc(F)cc2)cc1
1.01,Cc1sc2ncnc(N(C)C3CCCCC3)c2c1S(=O)(=O)N1CCC(C)CC1
1.15,O=C(CSc1nnc2sc3ccccc3n12)c1ccc2c(c1)OCO2
0.34,COc1ccc(C2C(C(=O)N3CCN(Cc4ccccc4)CC3)c3cc(OC)c(OC)cc3C(=O)N2C)cc1 (configuration not stated)
-0.74,O=S(=O)(Nc1ccc2c(c1)oc1ccccc12)c1ccc2oc3ccccc3c2c1
1.04,Cc1ccc(-n2nc3c(c2NC(=O)c2cccc([N+](=O)[O-])c2C)CS(=O)(=O)C3)c(C)c1
-0.4,CCOC(=O)C1C(=O)C=C(c2ccco2)CC1c1ccc(OC)c(OC)c1 (configuration not stated)
-1.93,CCc1ccc(S(=O)(=O)N2CCSC2c2ccc([N+](=O)[O-])cc2)cc1 (configuration not stated)
-0.46,N#Cc1cc2c(nc1SCC(=O)OCc1ccccc1)CCCCCC2
0.65,CC(C)Oc1cccc(C(=O)O)c1

Grouped by structure: those above containing a furan ring, fused or not
Measles inh,molecule
-0.36,O=C(O)CNc1ncnc2c1oc1ccccc12
-0.69,Cc1ccc2oc(-c3cccc(NC(=O)c4ccc([N+](=O)[O-])o4)c3C)nc2c1
-0.41,O=C(NC1CCCCC1)c1nn2c(C(F)(F)F)cc(-c3ccco3)nc2c1Br
-0.74,O=S(=O)(Nc1ccc2c(c1)oc1ccccc12)c1ccc2oc3ccccc3c2c1
-0.4,CCOC(=O)C1C(=O)C=C(c2ccco2)CC1c1ccc(OC)c(OC)c1 (configuration not stated)

The results go on.
Measles inh,molecule
-1.51,OC(CN1CCCCC1)Cn1c2ccc(Cl)cc2c2cc(Cl)ccc21 (configuration not stated)
0.4,Cc1ccccc1OCC(=O)Nc1ccc(-c2nc3ncccc3o2)cc1
-0.11,NC(=O)c1c(N=c2oc3ccccc3cc2C(=O)Nc2ccccc2F)sc2c1CCCC2
-0.43,CCCOC(=O)C1=C(C)N(CC)C(=O)NC1c1ccc([N+](=O)[O-])cc1 (configuration not stated)
-0.57,COc1cc([N+](=O)[O-])ccc1NC(=O)c1ccccc1Cl
-0.38,O=C(Cn1c(-c2ccccc2Cl)nc2ccccc2c1=O)Nc1cccc(C(F)(F)F)c1
1.09,O=C(Nc1ccccc1F)c1c(O)c2cccc3c2n(c1=O)CC3
0.31,O=C(NCc1ccco1)Nc1cccnc1
0.16,COc1ccc(NC(=O)C2=C(C)NC(=O)NC2c2ccccc2C)c(OC)c1 (configuration not stated)
-0.69,COc1ccccc1NC(=O)c1cc(C(=O)Nc2ccccc2OC)cc([N+](=O)[O-])c1
0.03,COC(=O)c1ccc(NCc2cccc([N+](=O)[O-])c2O)cc1
-0.34,COc1cc(OC)cc(-n2nc(C(=O)Nc3ccc(F)cc3)c3ccccc3c2=O)c1
1.45,O=[N+]([O-])c1ccccc1CN1CCN(Cc2c[nH]c3ccccc23)CC1
0.51,COC(=O)c1ccc(-c2cc(C=Cc3[nH]c(=O)[nH]c(=O)c3[N+](=O)[O-])co2)cc1
0.5,Cn1c2c(c(=O)n(C)c1=O)C(C(F)(F)F)(C(F)(F)F)NC(=O)N2
0.2,Cc1ccc2c(c1)C(c1ccccc1)N(C(=O)c1ccc3c(c1)OCO3)CC(=O)N2 (configuration not stated)
0.94,Cc1ccccc1Cn1c(CN2CCCCC2)nc2c1c(=O)n(C)c(=O)n2C
-0.31,O=C1C2CCCCC2C(=O)N1c1ccc2c(c1)OCO2 (configuration not stated)
-1.17,CC1CCN(C(=O)c2cc(-c3ccc(Cl)cc3)on2)CC1
0.84,O=C(O)c1cccc(N2C(=O)CC(c3ccccc3)CC2=O)c1
-0.31,COc1ccc(NC(=O)CCNS(=O)(=O)c2cccc3nsnc23)cc1OC
-0.2,CC1=C(C(=O)OCCOc2ccccc2)C(c2ccccc2C)C2=C(CCCC2=O)N1 (configuration not stated)
0.7,O=C(O)c1ccc2c(c1)C(=O)N(c1ccc(N3CCc4ccccc4C3)c([N+](=O)[O-])c1)C2=O
-0.35,O=C(O)c1ccc(N2CCc3ccccc32)c([N+](=O)[O-])c1
0.37,O=C1CN(C(=O)c2cccc(Br)c2)C(c2ccccc2)c2cc(F)ccc2N1 (configuration not stated)
2.23,COc1ccc(C2CC(C(F)(F)F)n3nc(C(=O)Nc4cc(Cl)ccc4C)cc3N2)cc1 (configuration not stated)
-1.09,O=C(Nc1ccc2oc(-c3ccc(F)cc3)nc2c1)c1cccc([N+](=O)[O-])c1
0.1,Cc1c(CN(C)C(=O)CSc2nc3c(c(C(F)(F)F)n2)CCc2ccccc2-3)cnn1C
-0.37,COc1ccccc1NC(=O)c1c(NC(=O)COc2ccccc2)sc2c1CCCCC2
-0.14,CCCSc1nc2c(c(=O)n1-c1ccc([N+](=O)[O-])cc1)SCC2
-0.49,CCOc1ccc(C(=O)Nc2cccc(-c3nc4cc(C)ccc4o3)c2)cc1Br
-0.11,O=C(Nc1ccc(S(=O)(=O)Nc2ncccn2)cc1)c1cccc([N+](=O)[O-])c1
0.96,COc1ccc(N2Cc3cccc(C(=O)NCc4ccc(F)cc4)c3C2=O)cc1
-0.2,COCCN1C(=S)NC2c3cccc(OC)c3OC1(C)C2C(=O)Nc1ccc(C)cc1C (configuration not stated)
0.71,Cc1ccc(NC(=O)C2C3C=CC(O3)C2C(=O)O)c(Br)c1 (configuration not stated)
-0.32,CCOc1ccc(NC(=O)C2(S(=O)(=O)c3ccc(Cl)cc3)CC2)cc1
0.28,CC(C)c1ccc(NC(=O)CCN2C(=O)c3cccc([N+](=O)[O-])c3C2=O)cc1
0.17,O=C(O)c1cc(NC(=O)c2cccc(Oc3ccc([N+](=O)[O-])cc3)c2)cc(C(=O)O)c1
-0.27,CN(CC(=O)N1CC=C(c2ccccc2)CC1)S(=O)(=O)c1cccs1
8.05,CCN=c1cc2oc3cc(NCC)c(C)cc3c(-c3ccccc3C(=O)O)c-2cc1C
-0.86,CCN(CC)S(=O)(=O)c1cc(C(=O)Nc2cccc(O)c2)ccc1C
2.32,Oc1ccc(Br)cc1-c1nc(Cl)c2ccccc2n1
-0.2,Cc1nn(C(=O)COc2ccccc2)c(C)c1Sc1ccccc1
-0.77,CC1=CCC2C(=O)N(c3ccccc3OC(=O)c3ccccc3Cl)C(=O)C2C1 (configuration not stated)
0.81,O=C(OCCNc1nc(-c2ccccc2)nc2ccccc12)c1ccncc1
-0.06,CCCCN(C)Cc1c(O)ccc2c3c(c(=O)oc12)CCC3
0.95,CC(O)c1nc2ccccc2n1CCOc1ccccc1 (configuration not stated)
0.77,COc1ccc(C2=NN(CC(=O)NCCCN3CCC(C)CC3)C(=O)CC2)cc1
0.59,COc1ccc(-n2nc(C(=O)NCC(=O)N3CCCCCC3)c3ccccc3c2=O)cc1Cl
-0.29,CC1CCN(c2nc(-c3ccncc3)nc3ccccc23)CC1
0.75,Cc1ccc2oc(-c3cccc(NC(=O)c4ccc(Br)cc4)c3C)nc2c1
0.1,CCC(C)Sc1nc2c(c(=O)[nH]c(=O)n2C)n1CC (configuration not stated)
0.01,CCOc1ccc(C(=O)N(C)c2nnc(C34CC5CC(CC(C5)C3)C4)s2)cc1
-0.81,COc1cc(C2C3=C(CC(C)(C)CC3=O)OC3=C2C(=O)CC(C)(C)C3)ccc1OCc1cc2c(cc1Cl)OCO2
-0.77,CCCCOc1ccc(-c2csc(NC(=O)c3cc4cccc(OC)c4oc3=O)n2)cc1
-0.76,CCCCc1nc2ccccc2n1CCCOc1ccc(Cl)cc1
-0.64,Cc1cc(C)cc(NS(=O)(=O)c2ccc3[nH]cc(C(=O)N4CCCC4)c(=O)c3c2)c1
1.42,O=C(CSc1oc(-c2cccs2)nc1S(=O)(=O)c1ccccc1)NCC1CCCO1 (configuration not stated)
-1.11,CCc1cc2c(N3CCN(Cc4ccccc4)CC3)ncnc2s1
0.4,O=S(=O)(c1ccc(I)cc1)N1CCSC1c1cccc(Cl)c1 (configuration not stated)
-0.62,CCc1ccc(Nc2nnc(C)c(=O)[nH]2)cc1
0.1,Cc1[nH]c(=O)[nH]c(=O)c1[N+](=O)[O-]
-1.22,CCN(C(=O)c1ccc(N2CC3CC(C2)c2cccc(=O)n2C3)c(NC(=O)c2ccccc2Cl)c1)c1cccc(C)c1 (configuration not stated)
